# Bfl-1 A1 inh = inhibitors of the anti-apoptotic protein A1, read as caspase activation | MEF A1-2A-BIM cells, Caspase-Glo 3/7 luminescence, 3 h; percent of clofoctol response, vehicle zero | caspase activation, % (test concentration not listed) | hit rate 0.066% among 330,000;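 active = over half of replicate activation scores above 10%, or exactly half above 10 with the replicate mean above 10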;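 note: wells of about 30 µL received 50 nL stock; many hits fall short of the cut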
# FGF22 binding = shifts melting point of recombinant human FGF22 | calls only at 9.99 µM | recombinant FGF22 thermal shift, SYPRO orange fluorescence; percent of sucrose octasulfate shift, DMSO zero | AID 651658 | hit rate 1.5% among 340,000;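 active = melting point raised past a set limit in the mean and every replicate; three in four hits are not shown here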
# Beta cell apopt = blocks beta cell apoptosis; hit rate 0.8% among 300,000; protection from apoptosis, % (no concentration beside the values); INS-1E cytokine-induced death, ATP luminescence, 48 h; percent of positive-control rescue, neutral wells zero;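 active = all replicates at 75% or more, or half of them and the mean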;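 note: 0% = cytokine-treated negative control wells and 100% = positive control rescue; higher means more ATP so stronger rescue from cytokine killing; wells of about 40 µL received 100 nL stock; the first replicate is given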
# Ecoli growth = E. coli growth inhibition | Escherichia coli growth, OD600, 23 h; stronger effect = lower value | OD600 absorbance (test concentration not listed) | hit rate 0.21% among 330,000;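 active = OD600 absorbance below the run mean of sample wells minus 3.6 SD, in any replicate, cut at about 0.56 in these data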;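 note: stock transfer was 300 nL into about 60 µL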
# T cruzi inh = T. cruzi replication inhibition. T. cruzi beta-gal in NIH3T3, luminescence, 90 h. inhibition, % (test concentration not listed). hit rate 1.4% among 300,000. AID 1885;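 active = mean inhibition across valid replicates above about 55%, limit read from the data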;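 note: signal also drops with host cell toxicity which is not excluded here; 0% = plate median of DMSO wells and 100% = zero luminescence signal; higher percent means less beta-gal luminescence so fewer parasites; stock transfer was 50 nL into about 50 µL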
# UCH37 DUB inh = blocks the human deubiquitinase UCH37. Q9Y5K5. purified proteasome/UCH37, Ub-AMC cleavage fluorescence. inhibition, % (no concentration beside the values). hit rate 0.33% among 330,000. AID 588478;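 active = mean of two replicates above 20%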;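 note: 0% = compound-free wells with enzyme and 100% = wells lacking proteasome; stock transfer was 100 nL into about 20 µL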
# Target sequence (Q9Y5K5 whole entry, looked up): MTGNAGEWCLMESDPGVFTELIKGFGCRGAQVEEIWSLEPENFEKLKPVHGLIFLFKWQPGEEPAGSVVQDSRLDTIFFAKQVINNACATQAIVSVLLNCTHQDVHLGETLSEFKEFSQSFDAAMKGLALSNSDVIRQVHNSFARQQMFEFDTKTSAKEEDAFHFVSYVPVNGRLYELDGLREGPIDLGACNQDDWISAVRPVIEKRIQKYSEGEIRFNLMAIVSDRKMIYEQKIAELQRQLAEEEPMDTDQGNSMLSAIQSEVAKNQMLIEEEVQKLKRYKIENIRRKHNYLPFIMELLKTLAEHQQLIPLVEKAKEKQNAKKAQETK
#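 assay system = human UCH37 enzyme supplied as purified proteasome complex | amount = proteasome at 0.15 nM in the dispensed enzyme solution | schedule = 30 min compound-proteasome preincubation then 25 min substrate reaction, room temperature | measured by = fluorescence, ex 355 nm, em 460 nm | benchmarks = no-proteasome wells (full inhibition) and compound-free wells (no inhibition)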
# AF4-AF9 inh = blocks AF4 peptide binding to human AF9; inhibition, % at 10 µM; AlphaScreen, biotin-AF4 peptide binding to FLAG-AF9; P42568; hit rate 0.47% among 350,000; AID 651704;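 active = every replicate reaching a set inhibition limit, whatever the replicate mean, cut at about 25% in these data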;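 note: 0% = plate neutral control median and 100% = total signal loss; the record names both 10 and 1 µM as test concentration; the first replicate is given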
# Target sequence (P42568 whole entry, looked up): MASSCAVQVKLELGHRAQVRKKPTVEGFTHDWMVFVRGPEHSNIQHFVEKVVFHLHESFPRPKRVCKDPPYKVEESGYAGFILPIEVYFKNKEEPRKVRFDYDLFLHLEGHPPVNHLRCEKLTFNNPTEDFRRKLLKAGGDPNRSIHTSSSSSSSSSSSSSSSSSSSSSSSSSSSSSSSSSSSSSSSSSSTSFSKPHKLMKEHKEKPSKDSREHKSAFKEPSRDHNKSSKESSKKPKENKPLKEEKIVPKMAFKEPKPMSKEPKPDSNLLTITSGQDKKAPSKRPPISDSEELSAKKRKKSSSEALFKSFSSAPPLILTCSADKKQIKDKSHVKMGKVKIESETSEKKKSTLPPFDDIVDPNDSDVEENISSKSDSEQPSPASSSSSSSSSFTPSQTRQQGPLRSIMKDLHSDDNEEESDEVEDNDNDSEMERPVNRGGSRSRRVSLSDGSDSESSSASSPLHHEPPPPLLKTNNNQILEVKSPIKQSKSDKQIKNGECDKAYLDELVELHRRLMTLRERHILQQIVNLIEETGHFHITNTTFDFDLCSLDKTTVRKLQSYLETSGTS
# rRNA inh HTS = selective bacterial rRNA inhibition in E. coli; E. coli WT GFP vs humanized-ribosome RFP mutants, fluorescence, 24 h; stronger effect = lower value; DMSO median 0, no signal -100; AID 720706; GFP signal change (wild-type ribosome), % (concentration not given with the values); hit rate 1.6% among 350,000;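 active = significant combined selectivity score with lowered wild-type GFP, culture density cut under 30%, mutant RFP and density less affected; inactive = any of these conditions unmet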; note: one replicate is shown; some compounds called inactive have numbers as strong as hits
# rRNA inh HTS OD600 = second read-out of rRNA inh HTS, no call of its own (marks repeat the call); OD600 change, %; measured here: OD600 growth;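 optical density of the mix in the first replicate; 0 = DMSO median and -100 = no signal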
# rRNA inh HTS RFP = recorded beside rRNA inh HTS, whose call it bears; RFP signal change, %; measured here: RFP humanized mutant strains;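 first replicate; 0 = DMSO median and -100 = no signal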
# * marks the source's active call; other numbers are inactive results; i = inactive; x = no result given; & = joins results of further samples.
# Short forms – A = Bfl-1 A1 inh; B = FGF22 binding; C = Beta cell apopt; D = Ecoli growth; E = T cruzi inh; F = UCH37 DUB inh; G = AF4-AF9 inh; H = rRNA inh HTS; I = rRNA inh HTS OD600; J = rRNA inh HTS RFP
(1) CC(C)CCNC(=O)CN(Cc1ccccc1)C(=O)CCC(=O)Nc1ccccn1
  A: 0.3 | B: i | C: -4 | D: 0.69 | E: 5 | F: -315 | G: 1.7 | H: -2 | I: 6 | J: -3.2

(2) Cc1ccc(NC(=S)Nc2ccc(F)cc2)cc1C
  A: -0.3 | B: i | C: 2 | D: 0.61 | E: 2 | F: 2.9 | G: 3.5 | H: -13 | I: -9 | J: -0.1

(3) N#Cc1cc2cc3c(cc2nc1SCC(=O)OC1CCCCC1)OCO3
  A: -0.9 | B: x | C: -1 | D: 0.73 | E: 6 | F: -11 | G: x | H: x | I: x | J: x

(4) CC(=O)NNc1nc(-c2ccccc2)c2cc(Br)ccc2n1
  A: 0.6 | B: x | C: x | D: 0.69 | E: 3 | F: 4.6 | G: x | H: x | I: x | J: x

(5) C[C@H](CO)N1C[C@H](C)[C@@H](CN(C)Cc2ccc(C(=O)O)cc2)Oc2ccc(NC(=O)Cn3cnnn3)cc2C1=O
  A: x | B: i | C: x | D: 0.73 | E: x | F: -1.6 | G: -1.1&0.4 | H: 4&1 | I: 8&4 | J: -2.2&-0.7

(6) COc1ccc(C2CC(c3cccs3)=NN2c2nc(-c3ccccc3)cs2)cc1OC (centres undefined)
  A: -0.7 | B: i | C: -1 | D: 0.71 | E: 9 | F: -157 | G: 0.2 | H: -29 | I: 7 | J: 41

(7) COc1ccc(OCCN(C)CC(=O)Nc2c(C)cccc2C)cc1
  A: 2.4 | B: i | C: -3 | D: 0.67 | E: -3 | F: 4.4 | G: -0.5 | H: -2 | I: -3 | J: 3.5

(8) CN(C)S(=O)(=O)N1CCN(S(=O)(=O)c2ccc(F)cc2)CC1
  A: 0.9 | B: x | C: -2 | D: 0.66 | E: -12 | F: -0.5 | G: x | H: x | I: x | J: x

(9) CCc1ccc2oc(C(=O)Nc3nonc3C)c(C)c2c1
  A: -3.4 | B: i | C: -5 | D: 0.71 | E: -15 | F: 4.8 | G: -10 | H: 4 | I: 10 | J: -2.4

(10) O=C(Nc1ccn(Cc2c(F)c(F)cc(F)c2F)n1)c1ccc(COc2ccccc2Cl)cc1
  A: 1.2 | B: i | C: 0 | D: 0.72 | E: 63* | F: 1.6 | G: 0.2 | H: -4 | I: 2 | J: -13

(11) c1ccc(-c2nn3c(Cn4nnc5ccccc54)nnc3s2)nc1
  A: 0.3 | B: x | C: -2 | D: 0.68 | E: 13 | F: 2.0 | G: x | H: x | I: x | J: x

(12) CCc1nc2scc(-c3ccc(C)cc3)c2c(=O)n1N
  A: 1.0 | B: i | C: 1 | D: 0.61 | E: -3 | F: 1.0 | G: -0.4 | H: -26 | I: -27 | J: -3.6

(13) COc1cc(-n2c(C)nc3cc(C(=O)NCC4CCCO4)ccc32)cc(OC)c1OC (centres undefined)
  A: -0.8 | B: i | C: -2 | D: 0.66 | E: 13 | F: 1.4 | G: 1.0 | H: 11 | I: 4 | J: 0.7

(14) O=c1[nH]c2ccc(S(=O)(=O)N3CCC(Cc4ccccc4)CC3)cc2o1
  A: 0.0 | B: x | C: 26 | D: 0.7 | E: 12 | F: -0.4 | G: x | H: x | I: x | J: x

(15) CCOC(=O)Cc1csc(NC(=O)CCN2C(=O)c3cccc([N+](=O)[O-])c3C2=O)n1
  A: 0.4 | B: i | C: 0 | D: 0.69 | E: -12 | F: 4.6 | G: -9.7 | H: 2 | I: 10 | J: 1.5

(16) CN(C)S(=O)(=O)c1ccc(Cl)c(NC(=O)COC(=O)/C=C/c2ccc3ccccc3n2)c1
  A: 2.7 | B: i | C: -4 | D: 0.6 | E: x | F: 2.1 | G: -1.3 | H: 10 | I: 17 | J: -1.4

(17) CCC1CC(CSC(=N)N)OC1=O (centres undefined)
  A: 0.3 | B: i | C: -5 | D: 0.66 | E: -5 | F: -0.3 | G: 1.5 | H: 6 | I: 12 | J: 0.7

(18) COC(=O)c1ccccc1NC(=O)CSCC(=O)Nc1ccccc1OC
  A: -0.1 | B: x | C: 0 | D: 0.68 | E: -5 | F: 2.1 | G: x | H: x | I: x | J: x

(19) Cc1sc2ncn(CC(=O)Nc3c(F)cccc3F)c(=O)c2c1S(=O)(=O)N1CCC(C)CC1
  A: 0.8 | B: i | C: -4 | D: 0.68 | E: -5 | F: -0.6 | G: 2.0 | H: 13 | I: 11 | J: 0.1

(20) CCCc1cnc(N2CCN(C(=O)c3c(-c4ccccc4)noc3C)CC2)nc1
  A: -0.2 | B: i | C: -3 | D: 0.69 | E: 3 | F: -3.5 | G: -0.6 | H: 9 | I: 2 | J: 0.2

(21) COc1cccc(CN2CC(C(=O)NCc3cccc(N4CCCC4)c3)CCC2=O)c1 (centres undefined)
  A: 0.1 | B: i | C: 2 | D: 0.71 | E: 10 | F: 5.2 | G: 5.1 | H: 2 | I: 7 | J: 2.5

(22) COc1ccc2cc(C)c3nnc(SCC(=O)Nc4cc(OC)c(OC)cc4C(=O)O)n3c2c1
  A: 0.7 | B: i | C: -1 | D: 0.69 | E: 8 | F: 1.8 | G: -2.0 | H: 16 | I: 15 | J: 3.0

(23) CC(C)=CCC(C)(C)C1OCCN1C(=O)c1ccccc1 (centres undefined)
  A: -0.4 | B: x | C: -11 | D: 0.71 | E: 16 | F: 63* | G: x | H: x | I: x | J: x

(24) COc1ccc(NC(=O)c2oc3ccccc3c2NC(=O)c2ccc(OC)c(OC)c2)c(OC)c1
  A: x | B: i | C: x | D: 0.7 | E: x | F: -144 | G: -4.6 | H: -1 | I: 4 | J: -0.7

(25) COc1ccc(S(=O)(=O)N2CCCc3ccccc32)cc1[N+](=O)[O-]
  A: 0.2 | B: i | C: 2 | D: 0.65 | E: 4 | F: 2.4 | G: 2.9 | H: -4 | I: 3 | J: 0.6

(26) COc1ccccc1NC(=O)COc1ccc(Br)cc1CNC1CCCC1
  A: 2.6 | B: i | C: 7 | D: 0.69 | E: 45 | F: 4.7 | G: 0.6 | H: -26 | I: -29 | J: 1.4

(27) COC(=O)CCSc1cc(NCCOC(C)=O)c([N+](=O)[O-])c2nonc12
  A: 0.4 | B: x | C: 3 | D: 0.68 | E: 4 | F: 11 | G: x | H: x | I: x | J: x

(28) CC(=O)Nc1ccc(-c2nc(C)c(C(C)=O)n2O)cc1
  A: -0.7 | B: i | C: 2 | D: 0.64 | E: -10 | F: -0.1 | G: 5.5 | H: 3 | I: 1 | J: -0.7

(29) CCOC(=O)C[C@H]1c2ccc(C(F)(F)F)cc2S(=O)(=O)N1c1cccc(OC)c1
  A: -3.4 | B: i | C: 9 | D: x | E: 0 | F: 3.9 | G: 9.3 | H: -40 | I: -73 | J: -4.6

(30) CC(C)Sc1n[nH]c(=O)n1-c1cccc(C(F)(F)F)c1
  A: -0.6 | B: i | C: 0 | D: 0.67 | E: -3 | F: -0.1 | G: -1.2 | H: 5 | I: 9 | J: -2.0

# Copied from the list.
# CN(C)S(=O)(=O)c1ccc(Cl)c(NC(=O)COC(=O)/C=C/c2ccc3ccccc3n2)c1 | rRNA inh HTS RFP: -1.4
# COc1ccc(S(=O)(=O)N2CCCc3ccccc32)cc1[N+](=O)[O-] | T cruzi inh: 4
# CCCc1cnc(N2CCN(C(=O)c3c(-c4ccccc4)noc3C)CC2)nc1 | Beta cell apopt: -3

# The listing picks up, repeating the two entries before the break.
# Short forms – A = Bfl-1 A1 inh; B = FGF22 binding; C = Beta cell apopt; D = Ecoli growth; E = T cruzi inh; F = UCH37 DUB inh; G = AF4-AF9 inh; H = rRNA inh HTS; I = rRNA inh HTS OD600; J = rRNA inh HTS RFP
(29) CCOC(=O)C[C@H]1c2ccc(C(F)(F)F)cc2S(=O)(=O)N1c1cccc(OC)c1
  A: -3.4 | B: i | C: 9 | D: x | E: 0 | F: 3.9 | G: 9.3 | H: -40 | I: -73 | J: -4.6

(30) CC(C)Sc1n[nH]c(=O)n1-c1cccc(C(F)(F)F)c1
  A: -0.6 | B: i | C: 0 | D: 0.67 | E: -3 | F: -0.1 | G: -1.2 | H: 5 | I: 9 | J: -2.0

(31) Cc1ccc(NC(=O)c2ccn(C)n2)c(Br)c1
  A: -3.1 | B: i | C: -3 | D: 0.64 | E: 2 | F: 2.4 | G: -6.3 | H: 2 | I: 4 | J: -2.0

(32) O=C(N/N=C/c1ccccc1)C1CCCN1C(=O)c1cc([N+](=O)[O-])cc([N+](=O)[O-])c1 (centres undefined)
  A: 1.7 | B: i | C: -3 | D: x | E: x | F: x | G: -1.4 | H: 3 | I: 18 | J: 1.7

(33) CC1CCC2(CC1)NC(=O)N(CC(=O)N1c3ccccc3CC1C)C2=O (centres undefined)
  A: 1.7 | B: i | C: 7 | D: 0.67 | E: x | F: 0.4 | G: -1.2 | H: 21 | I: 14 | J: 1.2

(34) NC(=S)N/N=C/c1ccc(/C=N/NC(N)=S)cc1
  A: 0.7 | B: i | C: -4 | D: x | E: -8 | F: x | G: 0.3 | H: 16 | I: 12 | J: -0.8

(35) Cc1noc(C)c1NC(=O)N(C)C[C@H]1Oc2ccc(NC(=O)NC(C)C)cc2C(=O)N([C@H](C)CO)C[C@H]1C
  A: 1.6 | B: i | C: -4 | D: 0.69 | E: x | F: -7.9 | G: 2.2 | H: 5&9 | I: 8&13 | J: -1.5&-5.0

(36) COC(=O)CCCC(=O)OC
  A: x | B: i | C: x | D: 0.67 | E: x | F: 1.7 | G: -2.9 | H: 6 | I: 3 | J: -0.4

(37) CCCNC(=O)c1[nH]c(C)c(C(C)=O)c1C
  A: 0.3 | B: x | C: -5 | D: 0.71 | E: 11 | F: 3.4 | G: x | H: x | I: x | J: x

# Exported with values under each structure: entries from further up
# Under each structure – Bfl-1 A1 inh, FGF22 binding, Beta cell apopt, Ecoli growth, T cruzi inh, UCH37 DUB inh, AF4-AF9 inh, rRNA inh HTS, rRNA inh HTS OD600, rRNA inh HTS RFP
31) Cc1ccc(NC(=O)c2ccn(C)n2)c(Br)c1
 : -3.1, i, -3, 0.64, 2, 2.4, -6.3, 2, 4, -2.0
32) O=C(N/N=C/c1ccccc1)C1CCCN1C(=O)c1cc([N+](=O)[O-])cc([N+](=O)[O-])c1 (centres undefined)
 : 1.7, i, -3, x, x, x, -1.4, 3, 18, 1.7

# An excerpt; rates above refer to the full screens.
